miR-21 FLuc – qHTS Assay for Modulators of miRNAs and/orActivators of miR-21; HeLa miR-21 FLuc reporter, luciferase, 48 h; Potency, µM (titrated, usually from 38.3 µM), for inactives: top-dose reporter change, positive = more light; 340,000 tested, under 10 active; AID 2288, 2010; active = well fitted rising curve with a large enough effect; inconclusive = small, poorly fitted or top-dose-only effect; inactive = no such curve, though single readings can be large or run the other way;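 also: % of control where 0% means no effect; miR-21 action dims this reporter so a rising signal means less miR-21 action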
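Using DMEM plus 10% FBS, HeLa miR-21-FLuc cells are incubated with test compounds (final up to about 40uM) for 48 hours; firefly luciferase signal is then imaged following reagent-mediated lysis.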
Rango-impB inh – qHTS Assay for Inhibitors of Rango (Ran-regulated importin-beta cargo) - Importin beta complex formation; Rango CFP/YFP FRET sensor + importin beta, 45 min; Potency, µM (top dose mostly 92.2 µM), for inactives: at the top dose inhibition of complex formation; hit rate 0.031% among 340,000; AID 540263, 2011; active = rising FRET ratio curve, often small or poorly fitted; inconclusive = mostly compound fluorescence or quenching in the first reads; inactive = flat curves in all reads;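 also: potency is read from the fitted curve at half-maximal effect; 0% = DMSO wells and 100% = buffer wells lacking importin beta; nearly all actives have a fitted effect of over 15% in size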
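FRET biosensor (snurportin 1 IBB flanked by EYFP and cerulean), 50 nM, with compound 5 min, then 0.125 microM importin beta in PBS, 1 mM DTT, 0.02% Tween-20, 0.1% BSA. CFP/YFP ratio read after 45 min at room temperature; pre-read flags interference.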
GLA inh pH 4.5 – qHTS Assay for Inhibitors of Human alpha-Galactosidase at pH 4.5; purified enzyme, 4-MU-alpha-Gal fluorescence, pH 4.5; activity change, negative = inhibition, % at 105 µM; 230,000 tested, under 10 active; Alpha-galactosidase A (Homo sapiens), P06280; inconclusive = small, poorly fitted or top-dose-only inhibition, or a rising curve; inactive = flat fitted curve, though single readings scatter; no compound was filed as active;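 also: 0% = full activity with enzyme and -100% = basal without enzyme; dose as in the result columns while the protocol names 77 µM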
Target sequence (P06280 whole entry, looked up): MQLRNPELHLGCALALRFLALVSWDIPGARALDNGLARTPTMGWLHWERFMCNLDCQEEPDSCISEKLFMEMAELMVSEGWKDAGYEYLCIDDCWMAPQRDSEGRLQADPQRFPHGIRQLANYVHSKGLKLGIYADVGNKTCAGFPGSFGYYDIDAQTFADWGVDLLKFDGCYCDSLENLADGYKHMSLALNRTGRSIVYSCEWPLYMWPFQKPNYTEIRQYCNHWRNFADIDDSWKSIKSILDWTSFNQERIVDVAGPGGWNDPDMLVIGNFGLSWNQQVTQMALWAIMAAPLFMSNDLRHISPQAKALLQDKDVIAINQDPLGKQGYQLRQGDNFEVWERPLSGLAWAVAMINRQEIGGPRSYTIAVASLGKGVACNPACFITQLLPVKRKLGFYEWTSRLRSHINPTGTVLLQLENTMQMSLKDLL
Rango release inh – qHTS Assay for Inhibitors of RanGTP induced Rango (Ran-regulated importin-beta cargo) - Importin beta complex dissociation; Snurportin-1 (Homo sapiens) + GTP-binding nuclear protein Ran (Homo sapiens) + Importin …; Biochemical FRET Rango-importin beta, RanGTP-induced dissociation; Potency, µM (highest dose often 46.1 µM), for inactives: at the highest dose activity change, negative = inhibition; hit rate 0.071% among 340,000; AID 540253, 2011; active means falling FRET ratio curve, often poorly fitted, with flat reads before Ran was added; inconclusive means other falling curves, or compound fluorescence or quenching; inactive means flat or rising ratio curve;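 also: potency is read from the fitted curve at half-maximal effect; % of control where 0% means no effect; nearly all actives have a fitted effect of over 45% in size; -100% = wells without RanGTP and RCC1; the record marks most hits as doubtful in a second field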
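Compounds sat 5 min at room temperature with 0.1 uM Rango biosensor plus 0.25 uM importin beta, then FRET pre-read. RanGTP-RCC1 (0.6 uM Ran, 2mM GTP, 0.2 uM RCC1) added for 45 min, and the CFP/YFP post-read measured blocked complex dissociation.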
* hit, by the source's call; ? = inconclusive; / = no result given; & = joins results of further samples. Some of the compounds tested; rates above refer to the full screens.

The opening 6 compounds, ahead of the listing:
SMILES,Rango release inh,miR-21 FLuc,GLA inh pH 4.5,Rango-impB inh
Cc1cc2c(C)nc(-c3ccccc3)nc2o1,-1%,-49%,-3,0.9%
Cc1cccc(-c2cc(C(=O)NCCCn3ccnc3)c3ccccc3n2)c1,/,2%,-9,/
COC(=O)c1ccc(C(=O)NC2CCSc3ccccc32)cc1 (centres undefined),-1%,-18%,/,-1.3%
COc1ccc(CCNC(=O)CCC(=O)N2CCOc3ccc(Cl)cc32)cc1OC,-9%,-2%,/,0.0%
CCC(C)NC(=O)C1=CCN(S(=O)(=O)c2ccc(C)cc2)CC1 (centres undefined),-3%,2%,1,4.0%
OCCCCNc1cccc2ccccc12,-11%,-5%,13,0.9%

Main list (from the top)
SMILES,Rango release inh,miR-21 FLuc,GLA inh pH 4.5,Rango-impB inh
Cc1cc2c(C)nc(-c3ccccc3)nc2o1,-1%,-49%,-3,0.9%
Cc1cccc(-c2cc(C(=O)NCCCn3ccnc3)c3ccccc3n2)c1,/,2%,-9,/
COC(=O)c1ccc(C(=O)NC2CCSc3ccccc32)cc1 (centres undefined),-1%,-18%,/,-1.3%
COc1ccc(CCNC(=O)CCC(=O)N2CCOc3ccc(Cl)cc32)cc1OC,-9%,-2%,/,0.0%
CCC(C)NC(=O)C1=CCN(S(=O)(=O)c2ccc(C)cc2)CC1 (centres undefined),-3%,2%,1,4.0%
OCCCCNc1cccc2ccccc12,-11%,-5%,13,0.9%
CCCn1c(N)c(N(CCOC)C(=O)c2cccc(Cl)c2)c(=O)[nH]c1=O,-2%,-7%,/,?
CCCN1C(=O)/C(=C/c2ccc(C)o2)SC1=Nc1ccc(OC)cc1,-8%,-5%,-5,4.8%
CO/N=C/c1c(-c2ccc(Cl)cc2)nc2cc(C)ccn12,2%,-23%,3,-3.6%
Cc1cc(C)c(C)c(S(=O)(=O)N2CCN(c3ncnc4ccccc34)CC2)c1C,10%,/,/,-1.0%
C=CCn1c(SCc2ccc(C(=O)NCCO)cc2)nc2ccccc2c1=O,1%,-8%,/,-1.6%
CCOC(=O)C1=C(CN2CCN(c3ccc(F)cc3)CC2)NC(=O)NC1c1cccs1 (centres undefined),1%,-8%,0,0.5%
COC(=O)c1ccc(-c2nc(CN3CCN(Cc4cccc(C)c4)CC3)c(C)o2)cc1,2%,-1%,/,-2.0%
CCC1Oc2ccc(C)cc2N(CC(=O)NCCCN2CCCC2)C1=O (centres undefined),-5%,5%,/,5.7%
CCOC(=O)C1(CC)NC(c2ccc(OC)cc2OC)C2C(=O)N(C)C(=O)C21 (centres undefined),6%,-1%,1,-0.5%
COCCOC(=O)/C(C#N)=C/c1cn(Cc2ccccc2)nc1-c1cccnc1,-1%,-6%,-1,1.8%
Cc1cc(NC(=O)CSCC(=O)Nc2nc3ccccc3[nH]2)no1,-12%,/,/,-1.7%
O=C(NC(=S)Nc1cccnc1)c1cccc(Br)c1,-3%,-22%,/,2.2%
O=C(O)C1CCCCC1C(=O)Nc1ccc2c(c1)OCCO2 (centres undefined),?,-13%,-9,-5.0%
CCOC(=O)C1(Cc2ccc(OC)cc2)CCN(C(=O)CN2CCCCC2=O)CC1,-4%,-13%,7,2.5%

(cont.)
SMILES,Rango release inh,miR-21 FLuc,GLA inh pH 4.5,Rango-impB inh
COc1ccc2oc(C)c(C(N)=O)c2c1,11%,1%,/,-0.9%
COc1ccc(NC(=O)c2ccc3c(c2)CCN3S(=O)(=O)c2ccccc2)c(OC)c1,-1%,-1%,/,3.2%
Cc1c(C(=O)C(=O)N2CCCc3ccccc32)c2ccccc2n1C,-11%,20%,-17,-1.3%
COc1ccccc1-c1cc(C(=O)NCCc2ccccc2)no1,-11%,-9%&-13%,-11,3.2%
C=CCNC(=S)NC(CC(=O)OC)c1ccc2c(c1)OCO2 (centres undefined),6%,-6%,2,-4.3%
CCOC(=O)C1=C(N)N2C(=O)C(C)SC2=C(C(=O)OC)C1c1ccccc1OC (centres undefined),-6%,0%,-10,-0.6%
O=C(O)C1CC1C(=O)Nc1nc2c(Cl)cccc2s1 (centres undefined),12%,-1%,/,0.1%
CCn1c(C)c(C)c2cc(C(=O)NCCCN3CCCCC3C)ccc21 (centres undefined),-3%,-1%&-3%,/,-2.1%
Cc1ccc(NS(=O)(=O)c2cc(C(=O)Nc3cccnc3)ccc2C)cc1,5%,2%,/,0.2%
CCCCCC(=O)N1CC2(CC(c3cccc(NC(=O)CC(c4ccccc4)c4ccccc4)c3)=NO2)C[C@@H]1C(N)=O (some centres undefined),-6%,?,-6,1.2%
O=C(Nc1ccccc1N1CCOCC1)c1cccc2c(Br)cccc12,-5%,-4%,/,5.6%
COc1ccc(C(=S)Nc2ccc(N(C)C)cc2)cc1,-6%,-51%,-1,1.3%
COc1ccc(C(=S)N2CCN(c3cccc(Cl)c3)CC2)cc1,0%,-1%&-12%,-5&-5,2.1%
COc1ccc(C(=O)N(CC(=O)Nc2sc(C)c(C)c2C(N)=O)C2CCCC2)cc1,2%,9%,/,-2.7%
COC(=O)CCC(=O)N(CCN(C(=O)CCC(=O)OC)c1ccccc1)c1ccccc1,6%,-7%,6,-1.7%
N#CCSc1ncccc1-c1nc2ccccc2[nH]1,0%,-32%,-8,2.8%
O=C(c1ccc(Cl)c(S(=O)(=O)N2CCCCCC2)c1)N1CCCCC1,-1%,-15%,/,-2.9%
Cc1[nH]c(=O)[nH]c(=O)c1NC(=O)c1sc2nc3c(C)cccc3cc2c1N,/,8%,-1,?
NC(=O)CCCCC(=O)OCCCc1cccs1,-3%,0%,3,-4.4%
CCOc1cc(CNCc2ccncc2)cc(Cl)c1OC,-3%,-5%,1,0.2%

Next part:
SMILES,Rango release inh,miR-21 FLuc,GLA inh pH 4.5,Rango-impB inh
Cc1nc2ccc(NC(=O)COc3ccccc3[N+](=O)[O-])cc2s1,1%,-23%,2,-0.3%
Cc1ccc(C(=O)OCn2nnc3ccccc3c2=O)cc1[N+](=O)[O-],5%,-2%,4,2.4%
CC12CCCCC1c1ccccc1C(=NCC(=O)O)N2 (centres undefined),-16%,-5%,-3,-4.5%
Cn1cccc1Cc1nnc(SCC(=O)Nc2ccc3c(c2)OCCO3)n1CCc1ccccc1,-4%,0%,-27,-3.1%
O=C1c2ccccc2C(=O)N1CSc1nnnn1-c1ccccc1,12%,-1%,-5,2.7%
CC(C)CN(C(=O)CSc1ccc2c(c1)OCCO2)c1c(N)n(CC(C)C)c(=O)[nH]c1=O,-9%,/,/,-6.4%
COc1ccc(NC(=O)C2CCCN(S(=O)(=O)c3cccc4cccnc34)C2)cc1 (centres undefined),13%,17%,-8,-2.1%
CC(=O)NCCn1c(SCc2ccccc2F)nc2ccccc2c1=O,5%,0%,-3,5.0%
Cc1ccc(OC(=S)Nc2ccc(O)cc2)cc1,13%,0%,1,-0.4%
Cc1ccc(-n2nnnc2-c2cnn(-c3ccc(F)cc3)c2C(F)(F)F)cc1,29%,1%,-10,0.1%
O=C(CCc1ccccc1)Nc1cc2c(cc1C(=O)O)OCCCO2,5%,/,/,-0.4%
O=C(Nc1nnc(CCN2CCCCC2)s1)c1ccc(Br)cc1,1%,0%,5,1.6%
Cc1ccc2oc(=O)c3cnn(CC(=O)N(CCN(C)C)Cc4ccco4)c3c2c1,15%,2%,-2,0.6%
COc1ccccc1NS(=O)(=O)c1cccc(C(=O)NCC2(N(C)C)CCCCC2)c1,0%,/,/,1.6%
CC(C)c1ccccc1NC(=O)COC(=O)c1cc(=O)[nH]c(=O)[nH]1,-13%,-1%,1,-0.4%
Fc1cccc(C2NN=C(c3ccccc3)S2)c1 (centres undefined),1%,-75%,2,-0.7%
CCn1c(CNc2ccc(Cl)cc2)nnc1SCc1ccc(C)cc1,0%,-2%,-21,-1.0%
Cc1ccc(C(=O)N2CCN(c3ccc([N+](=O)[O-])cc3)CC2)o1,13%,0%,/,-3.8%
O=C1CC(N2CCC(c3nc4ccccc4[nH]3)CC2)C(=O)N1c1cccc(F)c1 (centres undefined),-17%,0%,-2,1.6%
O=C(CSc1nnc(COc2ccc(Cl)cc2)o1)N1CCCC1,-13%,-3%,/,-1.4%

Whole records, looked up by structure. Order of values: Rango release inh, miR-21 FLuc, GLA inh pH 4.5, Rango-impB inh
Shown for `COc1ccc(NC(=O)C2CCCN(S(=O)(=O)c3cccc4cccnc34)C2)cc1` (centres undefined) → 13%, 17%, -8, -2.1%
Shown for `Fc1cccc(C2NN=C(c3ccccc3)S2)c1` (centres undefined) → 1%, -75%, 2, -0.7%

(next part)
SMILES,Rango release inh,miR-21 FLuc,GLA inh pH 4.5,Rango-impB inh
O=C(CC1C(=O)NCCN1Cc1ccc(F)c(F)c1)NCCCn1ccnc1 (centres undefined),7%,0%,6,3.2%
CCOC(=O)c1cccc(NC(=O)CCc2nnc3ccc(N4CCCCC4)nn23)c1,2%,1%,/,3.6%
CCOc1ccc(C(=O)N2CCN(c3ccccc3)CC2)cc1,1%,-28%,5,-3.5%
COC(=O)c1cn(NC(=O)/C=C/c2cc(OC)ccc2OC)c(=O)c2ccccc12,?,-1%,14,?
CCN(CC)C(=O)/C(=C/c1cccc([N+](=O)[O-])c1)NC(=O)c1ccco1,24%,5%,-5,2.4%
COc1c(C(=O)NCCSC(C)(C)C)ccc2ccccc12,14%,-58%,-1,-0.3%
Cc1ccc(NC(=O)C2CCCN2C(=O)Oc2ccccc2)cc1C (centres undefined),1%,-1%,-1,-2.7%
O=C(O)Cn1cc2c(n1)CCCC2,6%,-3%,6,1.8%
CC(NC(=O)NC(=O)c1ccc(Cl)cc1Cl)C1CC1 (centres undefined),23%,-41%,-9,-4.0%
CC1CCCCN1C(=O)Cn1cnc2c1c(=O)n(C)c(=O)n2C (centres undefined),-15%,0%,5,1.8%
CCn1cc(CNC(=O)c2ccc(OC3CCN(Cc4ccccn4)CC3)cc2)cn1,10%,12%,/,-0.2%
COc1ccc(C(=O)NCC(C)(C)N2CCOCC2)cc1S(=O)(=O)N1CCCC1,1%,/,/,-0.6%
CS(=O)(=O)c1ccc(C(=O)N(Cc2ccccc2)c2ccccc2)cc1,-6%,-1%,/,?
Nc1cc(=O)[nH]c(SCC(=O)Nc2nc3ccc([N+](=O)[O-])cc3s2)n1,/,-11%,-7,/
CC1(C)CC(CCNC(=O)c2ccc(-n3cnnn3)cc2)CC(C)(C)N1,-5%,-4%,1,0.6%
CC(=O)Nc1ccc(OCC(O)Cn2c(C(C)C)nc3ccccc32)cc1 (centres undefined),0%,0%,3,0.4%
CN(C)S(=O)(=O)c1ccc(C(=O)OCCN=C2NS(=O)(=O)c3ccccc32)cc1,16%,4%,/,0.8%
CC1Cc2cc(S(=O)(=O)CCC(=O)NC3CCCCC3)ccc2N1C(=O)C1CC1 (centres undefined),-3%,-1%,/,0.8%
Cc1ccc(NC(=O)COc2ccc(N(C)S(=O)(=O)c3ccc(F)cc3)cc2)cc1,20%,/,/,1.6%
Cc1ccc(NC(=O)CN2C(=O)S/C(=C\c3cc(C)n(-c4ccc(C(=O)O)cc4)c3C)C2=O)cc1,?,0%,-1,?
Cc1nc2ccc(NC(=O)c3cnc(Cl)c(Cl)c3)cc2s1,16%,-28%,/,-2.1%
COC(=O)Cn1c(CN2CCC(Cc3ccccc3)CC2)nc2c1c(=O)n(C)c(=O)n2C,-18%,1%,-4,?
